# Bfl-1 A1 inh – inhibitors of the anti-apoptotic protein A1, read as caspase activation | AID 2462 | MEF A1-2A-BIM cells, Caspase-Glo 3/7 luminescence, 3 h; percent of clofoctol response, vehicle zero | caspase activation, % (no concentration beside the values) | 0.066% of 330,000 active;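 active = over half of replicate activation scores above 10%, or exactly half above 10 with the replicate mean above 10; inconclusive = replicate mean below 10 yet half the replicates above 10; inactive = over half of replicates below 10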;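 note: wells of about 30 µL received 50 nL stock; many hits fall short of the cut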
# LANA-H2B inh – blocks KSHV LANA binding to histone H2A/H2B. Q9QR71. cell-free LANA-H2A/H2B peptide, fluorescence polarization. inhibition, % (test concentration not listed). AID 2629. 0.6% of 320,000 active; in the data active = inhibition mostly above about 10%, no sharp cut-off; inactive = mostly below about 6.7%;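 note: stock transfer was 7.5 nL into about 10 µL; 0% = median of vehicle wells and 100% = median of positive control wells; one replicate is shown; the record names a cut of 25% in any replicate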
# ALR inh – human ALR oxidase inhibition via reduced H2O2; AID 485317; purified ALR, DTT oxidation, H2O2 HRP-luminol luminescence; P55789; inhibition, % (no concentration beside the values); 3.8% of 290,000 active;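 active = mean and each replicate at 75% or more; inconclusive = only one of the two met; inactive = neither met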;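 note: stock transfer was 7.5 nL into about 7.5 µL; 0% = neutral wells and 100% = wells with inactivated enzyme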
# Target sequence (P55789 whole entry, looked up): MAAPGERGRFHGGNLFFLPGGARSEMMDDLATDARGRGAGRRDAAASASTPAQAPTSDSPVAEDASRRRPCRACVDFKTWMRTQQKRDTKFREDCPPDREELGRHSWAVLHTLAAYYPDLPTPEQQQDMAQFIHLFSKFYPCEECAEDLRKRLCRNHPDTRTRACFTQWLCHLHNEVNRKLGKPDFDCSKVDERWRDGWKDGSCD
# rRNA inh HTS – inhibitors of bacterial rRNA selective over humanized ribosomes. E. coli WT GFP vs humanized-ribosome RFP mutants, fluorescence, 24 h; active compounds read low; DMSO median 0, no signal -100. 1.6% of 350,000 active. GFP signal change (wild-type ribosome), % (no concentration beside the values);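 active = significant combined selectivity score with lowered wild-type GFP, culture density cut under 30%, mutant RFP and density less affected; inactive = any of these conditions unmet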; note: one replicate is shown; some compounds called inactive have numbers as strong as hits
# Calb FLC – affects C. albicans growth with fluconazole; C. albicans CaCi-2 (fluconazole-resistant clinical isolate) + fluconazole, Alamar Blue growth, 48 h; growth inhibition, % (test concentration not listed); 0.57% of 300,000 active;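 active = most replicates above 75%; inconclusive = exactly half above 75%; inactive = most below 75%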;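 note: all wells also contain fluconazole at 8 µg/ml as a sub-toxic cotreatment; 0% = median of DMSO wells and 100% = median of geldanamycin control wells; wells of about 8 µL received 7.5 nL stock; the first replicate is given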
# T cruzi repl – T. cruzi replication inhibition. T. cruzi beta-gal in NIH3T3, luminescence, 90 h. inhibition, % (concentration not given with the values). 1.4% of 300,000 active. AID 1885;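 active = mean inhibition across valid replicates above about 55%, limit read from the data; inconclusive = mean below that limit but half or more replicates reach it; inactive = mean below it, under half of replicates reach it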;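 note: signal also drops with host cell toxicity which is not excluded here; 0% = plate median of DMSO wells and 100% = zero luminescence signal; higher percent means less beta-gal luminescence so fewer parasites; stock transfer was 50 nL into about 50 µL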
# Beta apoptosis – blocks beta cell apoptosis; INS-1E cytokine-induced death, ATP luminescence, 48 h; percent of positive-control rescue, neutral wells zero; protection from apoptosis, % (test concentration not listed); 0.8% of 300,000 active;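 active = all replicates at 75% or more, or half of them and the mean; inconclusive = half reach 75% but not the mean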;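 note: 0% = cytokine-treated negative control wells and 100% = positive control rescue; higher means more ATP so stronger rescue from cytokine killing; wells of about 40 µL received 100 nL stock; the first replicate is given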
# B2AR ag – human beta-2 adrenergic receptor agonism by FAP; P07550; Am2.2-beta2AR cells, FAP receptor internalization, flow cytometry; reference of the scale not given here; response, % (test concentration not listed); 0.43% of 340,000 active; AID 504454;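 active = response above a set limit, near 3 SD of response in nonfluorescent compounds, cut at about 42% in these data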;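 note: stock transfer was 100 nL into about 11 µL; a reference agonist was the positive control; negative values mostly stem from fluorescent compounds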
# Target sequence (P07550 whole entry, looked up): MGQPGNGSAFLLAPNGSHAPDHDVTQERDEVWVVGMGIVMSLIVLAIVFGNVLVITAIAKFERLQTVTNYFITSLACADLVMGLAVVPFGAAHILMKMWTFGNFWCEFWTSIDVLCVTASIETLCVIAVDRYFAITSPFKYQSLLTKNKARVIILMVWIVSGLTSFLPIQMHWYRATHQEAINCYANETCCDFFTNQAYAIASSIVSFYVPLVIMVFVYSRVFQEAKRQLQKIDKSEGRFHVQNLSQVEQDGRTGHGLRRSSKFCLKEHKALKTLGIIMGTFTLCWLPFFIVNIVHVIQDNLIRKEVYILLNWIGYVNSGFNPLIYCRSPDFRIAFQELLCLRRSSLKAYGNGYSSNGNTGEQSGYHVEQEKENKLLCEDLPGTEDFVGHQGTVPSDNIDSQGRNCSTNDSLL
# rRNA inh HTS OD600 – further read-out of rRNA inh HTS, marked with its call; OD600 change, %; measured here: OD600 growth;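 optical density of the mix in the first replicate; 0 = DMSO median and -100 = no signal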
# rRNA inh HTS RFP – recorded beside rRNA inh HTS, whose call it bears; RFP signal change, %; measured here: RFP humanized mutant strains;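 first replicate; 0 = DMSO median and -100 = no signal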
# * marks the source's active call; other numbers are inactive results; ? = inconclusive; nt = not tested or not shown. A portion of the library (hit frequency here may not be typical).
SMILES,Bfl-1 A1 inh,LANA-H2B inh,ALR inh,rRNA inh HTS,rRNA inh HTS OD600,rRNA inh HTS RFP,Calb FLC,T cruzi repl,Beta apoptosis,B2AR ag
COc1cc(OC)cc(-c2c(C#Cc3ccsc3)c3cc(-c4ccc(OC)c(OC)c4)ccc3n2C)c1,0.0,-0.4,2,7,4,-7.2,nt,nt,-3,5
Cc1cc(NC(=O)Cn2nnc3sc4c(c3c2=O)CCC(C(C)(C)C)C4)no1 (stereo unspecified),-0.8,2.0,-5,nt,nt,nt,2,16,1,18
Cc1ccc(-n2c(SCC(N)=O)nnc2-c2ccccn2)cc1,1.5,0.5,1,nt,nt,nt,3,-2,-5,1
CCCCCCC(C)n1cc(C(C)=O)c(=O)[nH]c1=O (stereo unspecified),0.7,3.7,1,nt,nt,nt,-1,-3,-5,1
Cc1csc2c(N3CCN(C(=O)Nc4ccc(Cl)c(Cl)c4)CC3)ncnc12,-1.1,1.5,-5,-6,-6,0.3,3,0,-3,18
CC(=O)c1ccc(N2CCN(C(=O)c3c(-c4ccccc4Cl)noc3C)CC2)cc1,0.7,-0.3,-2,3,-1,0.1,4,0,2,-2
O=C(Nc1cc2c(cc1Cl)OCCCO2)c1ccc(F)cc1,0.3,1.1,-6,nt,nt,nt,-24,-10,-6,1
CC(C)CCNC(=O)C1CCN(Cc2cccc(OCc3ccccc3)c2)CC1,-0.2,0.4,0,-17,-13,-0.4,9,48,4,5
Cc1c(NC(=O)C(C)Sc2ncnc3ccccc23)c(=O)n(-c2ccccc2)n1C (stereo unspecified),?,6.6,-4,5,16,0.7,-4,-5,nt,-2
COc1ccc(Nc2cccc(Cl)c2)c(C(=O)O)c1,-0.2,-0.2,98*,nt,nt,nt,3,-31,2,10
O=C(N/N=C(\c1ccccc1)c1ccccn1)c1ccccc1Cl,0.1,-1.1,7,-31,-57,-1.4,23,62*,94*,9
O=C(Cc1ccccc1)N/N=C/c1ccc(Cl)cc1Cl,1.2,1.2,-10,nt,nt,nt,13,4,2,-3
COc1cc(C2CC(=O)Oc3c2c(=O)n(C)c2ccccc32)ccc1O (stereo unspecified),1.2,2.6,32,11,10,3.0,12,5,-3,3
O=P1(c2ccccc2)C=Cn2c1cc1c2CCCC1 (stereo unspecified),0.1,2.2,-1,nt,nt,nt,9,-5,0,4
O=C1N/C(=N/O)S/C1=C/c1cccc([N+](=O)[O-])c1,-4.2,1.9,8,10,12,-0.4,-39,-14,-7,3
O=C(NC1(C(F)(F)F)NC(=O)N(Cc2cccnc2)C1=O)c1ccccc1 (stereo unspecified),0.4,1.8,-2,nt,nt,nt,-8,-10,1,1
CCOc1cc(/C=N/n2c(COc3ccccc3)n[nH]c2=S)ccc1O,0.8,-7.2,15,-3,-9,-0.3,3,-2,4,10
CCCCCCN1N=C(C)C(C(=O)c2ccc(Cl)cc2)C1=O (stereo unspecified),1.9,-5.0,4,nt,nt,nt,-12,-7,3,-3
O=C(CC1SC(=NCC2CCCO2)NC1=O)Nc1cccc2ccccc12 (stereo unspecified),0.0,-2.5,-28,7,6,0.7,-8,-14,-9,3
C=CCNC(=O)CSc1nc2sc3c(c2c(=O)n1CCCOC)CCC3,-1.1,3.8,81*,0,-5,4.4,1,6,1,-3

# Part of the list above, limited to rRNA inh HTS RFP, Bfl-1 A1 inh and LANA-H2B inh.
SMILES | rRNA inh HTS RFP | Bfl-1 A1 inh | LANA-H2B inh
CC(=O)c1ccc(N2CCN(C(=O)c3c(-c4ccccc4Cl)noc3C)CC2)cc1 | 0.1 | 0.7 | -0.3
COc1cc(OC)cc(-c2c(C#Cc3ccsc3)c3cc(-c4ccc(OC)c(OC)c4)ccc3n2C)c1 | -7.2 | 0.0 | -0.4

# Given with values under each structure: part of the list above
# The line under a structure holds: Bfl-1 A1 inh, LANA-H2B inh, ALR inh, rRNA inh HTS, rRNA inh HTS OD600, rRNA inh HTS RFP, Calb FLC, T cruzi repl, Beta apoptosis, B2AR ag
CCCCCCC(C)n1cc(C(C)=O)c(=O)[nH]c1=O (stereo unspecified)
→ 0.7, 3.7, 1, nt, nt, nt, -1, -3, -5, 1
Cc1csc2c(N3CCN(C(=O)Nc4ccc(Cl)c(Cl)c4)CC3)ncnc12
→ -1.1, 1.5, -5, -6, -6, 0.3, 3, 0, -3, 18
CC(=O)c1ccc(N2CCN(C(=O)c3c(-c4ccccc4Cl)noc3C)CC2)cc1
→ 0.7, -0.3, -2, 3, -1, 0.1, 4, 0, 2, -2
O=C(Nc1cc2c(cc1Cl)OCCCO2)c1ccc(F)cc1
→ 0.3, 1.1, -6, nt, nt, nt, -24, -10, -6, 1
CC(C)CCNC(=O)C1CCN(Cc2cccc(OCc3ccccc3)c2)CC1
→ -0.2, 0.4, 0, -17, -13, -0.4, 9, 48, 4, 5
Cc1c(NC(=O)C(C)Sc2ncnc3ccccc23)c(=O)n(-c2ccccc2)n1C (stereo unspecified)
→ ?, 6.6, -4, 5, 16, 0.7, -4, -5, nt, -2
COc1ccc(Nc2cccc(Cl)c2)c(C(=O)O)c1
→ -0.2, -0.2, 98*, nt, nt, nt, 3, -31, 2, 10
O=C(N/N=C(\c1ccccc1)c1ccccn1)c1ccccc1Cl
→ 0.1, -1.1, 7, -31, -57, -1.4, 23, 62*, 94*, 9
O=C(Cc1ccccc1)N/N=C/c1ccc(Cl)cc1Cl
→ 1.2, 1.2, -10, nt, nt, nt, 13, 4, 2, -3
COc1cc(C2CC(=O)Oc3c2c(=O)n(C)c2ccccc32)ccc1O (stereo unspecified)
→ 1.2, 2.6, 32, 11, 10, 3.0, 12, 5, -3, 3
O=P1(c2ccccc2)C=Cn2c1cc1c2CCCC1 (stereo unspecified)
→ 0.1, 2.2, -1, nt, nt, nt, 9, -5, 0, 4
O=C1N/C(=N/O)S/C1=C/c1cccc([N+](=O)[O-])c1
→ -4.2, 1.9, 8, 10, 12, -0.4, -39, -14, -7, 3
O=C(NC1(C(F)(F)F)NC(=O)N(Cc2cccnc2)C1=O)c1ccccc1 (stereo unspecified)
→ 0.4, 1.8, -2, nt, nt, nt, -8, -10, 1, 1
CCOc1cc(/C=N/n2c(COc3ccccc3)n[nH]c2=S)ccc1O
→ 0.8, -7.2, 15, -3, -9, -0.3, 3, -2, 4, 10
CCCCCCN1N=C(C)C(C(=O)c2ccc(Cl)cc2)C1=O (stereo unspecified)
→ 1.9, -5.0, 4, nt, nt, nt, -12, -7, 3, -3
O=C(CC1SC(=NCC2CCCO2)NC1=O)Nc1cccc2ccccc12 (stereo unspecified)
→ 0.0, -2.5, -28, 7, 6, 0.7, -8, -14, -9, 3
C=CCNC(=O)CSc1nc2sc3c(c2c(=O)n1CCCOC)CCC3
→ -1.1, 3.8, 81*, 0, -5, 4.4, 1, 6, 1, -3

# Carrying on.
SMILES,Bfl-1 A1 inh,LANA-H2B inh,ALR inh,rRNA inh HTS,rRNA inh HTS OD600,rRNA inh HTS RFP,Calb FLC,T cruzi repl,Beta apoptosis,B2AR ag
O=C(/C=C/c1ccccc1)c1ccc2c(c1)OCCCCO2,-4.1,3.0,20,nt,nt,nt,-3,-21,4,7
O=C(COc1ccccc1)OCC(=O)c1ccc(O)cc1O,-0.3,-3.1,nt,0,0,-2.1,nt,nt,-4,4
CCc1nc(-c2ccccc2)c2ccccn12,0.5,0.7,-34,5,6,0.2,19,-1,-4,-4
COc1ccc(C(=O)/C=C/Nc2ccc([N+](=O)[O-])cc2)cc1,0.4,0.8,-3,nt,nt,nt,0,-3,1,-4
O=C(CNC(=O)c1cccs1)NCC(=O)OCc1c(F)cccc1Cl,0.3,-0.1,20,-3,7,-0.8,-1,0,-2,-8
CC1(C)C2CCC(C2)C1(C)NC(=O)C[N+](C)(C)C (stereo unspecified),nt,nt,nt,9,5,0.7,?,0,nt,-1
O=C(Nc1c(F)c(F)c(F)c(F)c1F)C1CCCCC1,0.2,-1.5,7,nt,nt,nt,-5,-5,-3,1
Cc1ccccc1C(=O)NC(NCC1CCCO1)C(Cl)(Cl)Cl (stereo unspecified),0.1,5.8,-22,nt,nt,nt,9,5,-1,-7
O=C(NCc1ccccc1Cl)C1CCCN(C(=O)Nc2ccc(F)cc2)C1 (stereo unspecified),0.1,0.3,1,3,8,-1.6,1,3,8,3
CCN1CCN(S(=O)(=O)c2ccc(OC)cc2)CC1,-0.1,-0.1,1,7,8,0.8,35,-2,nt,-5
O=C(CN1C(=O)NC2(CCCCCC2)C1=O)c1ccc2c(c1)OCCO2,0.4,3.1,-2,nt,nt,nt,5,-11,-2,9
CC(C)CCN1CCN(CCCc2ccccc2)CC1CCO (stereo unspecified),-1.0,-7.1,nt,3,5,0.4,-1,14,-2,7
CCC(C)(C)n1nnnc1C(c1cc(OC)ccc1OC)N1CCN(Cc2ccccc2)CC1 (stereo unspecified),-0.4,2.6,-2,-13,-13,-1.6,-11,17,4,5
CC1(C)CC(=O)C(C2(O)C(=O)Nc3ccccc32)CO1 (stereo unspecified),-0.2,-6.8,-6,8,2,2.1,-33,nt,-5,2
NS(=O)(=O)c1ccc(CNC(=O)c2ccc(Br)o2)cc1,0.7,-7.8,nt,nt,nt,nt,-1,-3,0,6
CCOC(=O)C1CCCCN1Cc1cn(C)nc1-c1ccccc1F (stereo unspecified),0.2,1.5,1,-1,-6,-4.4,0,-1,-2,0
CCCn1c(=O)c(C(=O)NCC2CCCO2)c(O)c2ccccc21 (stereo unspecified),0.4,0.2,-9,-29,-40,-2.5,21,0,2,-1
CN(C)S(=O)(=O)c1ccc(-c2csc(N/N=C/c3ccco3)n2)cc1,0.0,-0.2,-1,-20*,0.2*,-3.1*,5,6,20,25
CCn1c(SCC(=O)c2cc(OC)ccc2OC)nnc1C1CC1,0.6,-0.3,-10,nt,nt,nt,-8,3,4,3
CCCCN(C(=O)COC(=O)c1nc2nc(C)cc(C)n2n1)C1CCS(=O)(=O)C1 (stereo unspecified),-0.3,nt,-5,21,7,4.2,nt,nt,0,-5
Cc1cc(C)n(CCc2nc(-c3cc4ccccc4o3)cs2)n1,-0.2,3.5,-15,nt,nt,nt,1,12,-1,7
COc1ccc(C2(c3ccc(O)cc3O)CC(c3ccccc3Cl)NC(=S)N2)cc1 (stereo unspecified),1.6,-11,16,-51,-82,-13,-2,10,-3,9
CCCc1nc2c(s1)CCc1onc(-c3ccc(Cl)cc3)c1-2,0.6,1.6,nt,2,-2,-12,-1,-10,-12,-13
Cc1ccc(C(=O)Nc2c(N)nc(SCC(=O)Nc3cc(C)on3)[nH]c2=O)cc1,-2.4,-1.4,-1,14,17,2.8,nt,-2,-2,2
Cc1ccc(OCc2ccc(C#N)cc2)c(C(=O)c2cc(C#N)c(=O)n(C3CC3)c2)c1,-0.1,5.4,-10,12,11,-1.6,nt,-12,6,-6
CC(C)n1c(SCC(=O)NC2CC2)nnc1C1CC1,0.3,-8.8,-2,-3,-4,-2.2,-1,-3,-2,-1
COc1cccc(N2CCN(C3CC(=O)N(c4ccc(Cl)cc4)C3=O)CC2)c1 (stereo unspecified),0.0,0.2,27,nt,nt,nt,18,-13,-2,-5
COc1ccc(/C=C/C2=NN(C)C(=O)CC2)cc1,0.3,7.8,-2,nt,nt,nt,17,-18,8,-1
